A1 inhib: blocks A1 activity. MEF A1-2A-BIM cells, caspase-Glo luminescence, 3 h; percent of clofoctol signal, DMSO as zero. caspase activation, % (concentration not given with the values). actives 0.51% (n = 21,000). AID 2241;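 active = most replicate scores above 10, or exactly half above 10 with mean activity above 10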;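 note: effector caspase 3 and 7 activity cleaving a DEVD luciferin substrate; 50 nL library stock added to about 30 µL; numbers are from one replicate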
BJeLR viab HTS: lowers viability of BJeLR cells | BJeLR fibroblasts viability, CellTiterGlo ATP luminescence, 48 h; HRASV12, hTERT and SV40 LT/ST transformed | viability loss activity score, % (no concentration beside the values) | actives 0.64% (n = 30,000) | AID 2275; in the data active = viability loss activity score above about 50%; about a fifth of its hits are not listed in these tables;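 note: higher score means fewer live cells and less ATP luminescence; stock transfer was 50 or 100 nL into about 30 µL; 0% = vehicle wells and 100% = a reference killing control; one replicate is shown; the record names a cut of 85%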
Active calls of the source: *; · = no result given. The list is partial (hit frequency here may not be typical).

no.	smiles	A1 inhib	BJeLR viab HTS
1	O=C(NN1C(=O)/C(=C\c2cccnc2)SC1=S)c1ccccc1	0.8	3.0
2	COc1ccc(C2CC(=O)c3c(O)cc(O)cc3O2)cc1O (centres undefined)	-1.4	6.4
3	CC(C)NC(=O)Nc1ccc2c(c1)C(=O)N([C@@H](C)CO)C[C@@H](C)[C@@H](CN(C)C(=O)NC(C)C)O2	-0.4	-1.7
4	C[C@H]1CN([C@@H](C)CO)C(=O)c2cc(NS(=O)(=O)c3ccc(F)cc3)ccc2O[C@@H]1CN(C)CC1CCCCC1	2.5	-1.7
5	C[C@@H]1CN([C@H](C)CO)C(=O)c2cccc(N(C)C)c2O[C@@H]1CN(C)S(=O)(=O)c1ccccc1	·	-5.9
6	COc1ccc(NC(=O)N(C)C[C@@H]2Oc3ccc(NS(=O)(=O)c4c(C)noc4C)cc3C(=O)N([C@@H](C)CO)C[C@@H]2C)cc1	-0.3	0.5
7	CC(NC(=S)NC(=O)c1cccs1)C12CC3CC(CC(C3)C1)C2 (centres undefined)	-0.7	-9.4
8	C[C@@H]1CN([C@@H](C)CO)C(=O)c2cc(NC(=O)Cc3ccccc3)ccc2O[C@H]1CN(C)C(=O)Nc1ccc(C(F)(F)F)cc1	-0.4	0.6
9	C[C@@H]1CN([C@H](C)CO)C(=O)c2cc(NC(=O)NC3CCCCC3)ccc2O[C@H]1CN(C)Cc1ccc(-c2ccccc2)cc1	0.1	-3.5
10	C=CC(C)(O)CC/C=C(\C)CCC(O)C(C)(C)O (centres undefined)	-0.1	-0.8
11	Cc1noc(C)c1NC(=O)N(C)C[C@@H]1Oc2c(NC(=O)Nc3ccccc3)cccc2C(=O)N([C@H](C)CO)C[C@@H]1C	·	-7.6
12	C[C@@H]1CN([C@H](C)CO)C(=O)c2cccc(NS(=O)(=O)c3ccc(F)cc3)c2O[C@@H]1CN(C)S(=O)(=O)c1ccc(Cl)cc1	·	-0.8

Four entries picked at random from those above, as already listed:
no.	smiles	A1 inhib	BJeLR viab HTS
2	COc1ccc(C2CC(=O)c3c(O)cc(O)cc3O2)cc1O (centres undefined)	-1.4	6.4
12	C[C@@H]1CN([C@H](C)CO)C(=O)c2cccc(NS(=O)(=O)c3ccc(F)cc3)c2O[C@@H]1CN(C)S(=O)(=O)c1ccc(Cl)cc1	·	-0.8
6	COc1ccc(NC(=O)N(C)C[C@@H]2Oc3ccc(NS(=O)(=O)c4c(C)noc4C)cc3C(=O)N([C@@H](C)CO)C[C@@H]2C)cc1	-0.3	0.5
10	C=CC(C)(O)CC/C=C(\C)CCC(O)C(C)(C)O (centres undefined)	-0.1	-0.8

Next compounds.
no.	smiles	A1 inhib	BJeLR viab HTS
13	C[C@H]1CN([C@@H](C)CO)C(=O)c2cc(NC(=O)NC3CCCCC3)ccc2O[C@H]1CN(C)S(=O)(=O)c1cn(C)cn1	0.2	-0.2
14	Cc1ccc(S(=O)(=O)N(C)C[C@@H]2Oc3ccc(NC(=O)Nc4cccc5ccccc45)cc3C(=O)N([C@@H](C)CO)C[C@@H]2C)cc1	0.1	-2.7
15	CCN(CCCn1c(=S)[nH]c2cc3c(cc2c1=O)OCO3)c1cccc(C)c1	0.1	0.2
16	O=C(c1ccco1)N1CCN(Cc2cccnc2)CC1	-0.8	2.8
17	COc1ccc(S(=O)(=O)Nc2cccc3c2O[C@@H](CN(C)S(=O)(=O)c2cn(C)cn2)[C@@H](C)CN([C@@H](C)CO)C3=O)cc1	·	4.8
18	C[C@@H]1CN([C@H](C)CO)C(=O)c2cc(N(C)C)ccc2O[C@@H]1CN(C)S(=O)(=O)c1ccc(Cl)cc1	-0.1	2.6
19	CC(C)(C)c1ccc(NC(=S)NCc2cccnc2)cc1	-0.2	1.2
20	C[C@@H]1CN([C@H](C)CO)C(=O)c2cc(NC(=O)Cn3cnnn3)ccc2O[C@@H]1CN(C)C(=O)Nc1ccc(C(F)(F)F)cc1	-0.5	0.4
21	CCOc1cccc2cc(C(=O)Nc3nccs3)c(=Nc3cccc(C(F)(F)F)c3)oc12	-0.4	6.8
22	Clc1ccccc1COc1cccc(CNCc2cccnc2)c1	·	3.6
23	C[C@@H]1CN([C@@H](C)CO)C(=O)c2cccc(NC(=O)NC3CCCCC3)c2O[C@@H]1CN(C)CC1CCCCC1	·	5.3
24	N#CCSC1=Nc2ccccc2C2=NC(CCC(=O)NCc3ccccc3)C(=O)N12 (centres undefined)	0.4	-5.9
25	Cc1noc(C)c1S(=O)(=O)Nc1ccc2c(c1)C(=O)N([C@H](C)CO)C[C@H](C)[C@@H](CN(C)C(=O)Nc1ccccc1)O2	-0.7	-1.1
26	C[C@H]1CN([C@@H](C)CO)C(=O)c2cccc(NC(=O)c3cnccn3)c2O[C@H]1CN(C)S(=O)(=O)c1cccs1	·	-2.8
27	O=C(NCC1CCCO1)c1ccc(Cn2c(=S)[nH]c3ccccc3c2=O)cc1 (centres undefined)	1.0	-1.1
28	O=C(NC1CCCCC1)c1cc2c(=O)[nH]c3ccccc3c2s1	·	8.0
29	Cn1c(Cc2ccsc2)nnc1Sc1nc2ccc(Cl)cc2s1	-0.5	4.2
30	O=C1C2=C(NC(=S)NC2c2ccccc2)c2ccccc21 (centres undefined)	1.4	-1.1
31	C[C@@H]1CN([C@H](C)CO)C(=O)c2cc(NS(=O)(=O)c3ccc(Cl)cc3)ccc2O[C@H]1CN(C)Cc1ccc(Oc2ccccc2)cc1	-0.1	3.1
32	COc1cccc(/C=C/C(=O)C2C(=O)c3ccccc3C2=O)c1	-5.0	4.0
33	FC(F)(F)c1ccccc1NC(=S)N1CCCC1	0.8	0.0
34	Cc1cc(C)nc(SCc2nc3ccccc3c(=O)n2-c2ccc(C(F)(F)F)cc2)n1	0.0	-7.9
35	Cc1ccc(S(=O)(=O)Nc2ccc3c(c2)C(=O)N([C@H](C)CO)C[C@H](C)[C@@H](CN(C)C(=O)NC2CCCCC2)O3)cc1	0.3	-3.2
36	CC(C)(OC(=O)c1ccccc1)[C@@H]1Cc2cc3ccc(=O)oc3cc2O1	0.4	-8.1
37	C[C@@H]1CN([C@@H](C)CO)C(=O)c2cccc(NC(=O)Nc3ccc(F)cc3)c2O[C@@H]1CN(C)CC1CC1	·	-4.8
38	C[C@@H]1CN([C@H](C)CO)C(=O)c2cccc(NC(=O)C3CC3)c2O[C@H]1CN(C)Cc1ccncc1	·	-7.5
39	O=C(CSc1nnc2ccccn12)N1CCOCC1	0.9	0.0
40	C[C@H]1CN([C@@H](C)CO)C(=O)c2cc(NS(=O)(=O)c3cccs3)ccc2O[C@H]1CN(C)Cc1ccc(Oc2ccccc2)cc1	-0.6	-4.3
41	C[C@@H]1CN([C@@H](C)CO)C(=O)c2cccc(NS(=O)(=O)c3ccccc3)c2O[C@H]1CN(C)C(=O)Nc1ccc(F)cc1	·	0.2
42	C=C1CCC2[C@](C)(CO)[C@H](O)CC[C@@]2(C)[C@@H]1C/C=C1/C(=O)OC[C@H]1O (some centres undefined)	0.3	19.8
43	C[C@@H]1CN([C@H](C)CO)C(=O)c2cc(NC(=O)C3CC3)ccc2O[C@@H]1CN(C)CC1CCCCC1	-0.2	-1.4
44	COc1cc(O)c2c(=O)c(-c3ccc(O)cc3)coc2c1	-2.3	-4.0
45	CSc1ccc(-c2nc(CSCC(=O)N3CCCC3)c(C)o2)cc1	·	2.8
46	COc1ccc(S(=O)(=O)Nc2ccc3c(c2)C(=O)N([C@H](C)CO)C[C@@H](C)[C@@H](CN(C)C(=O)Nc2c(C)noc2C)O3)cc1	0.6	0.6
47	O=C(c1ccc(Cn2c(=O)[nH]c3ccccc3c2=O)cc1)N1CCN(c2ccccc2)CC1	-0.2	0.4
48	C[C@H]1CN([C@@H](C)CO)C(=O)c2cc(NS(=O)(=O)c3ccc(F)cc3)ccc2O[C@@H]1CN(C)Cc1ccc(C(F)(F)F)cc1	-0.9	-2.6
49	Cc1cc(=O)[nH]c(SCc2nc3ccccc3[nH]2)n1	0.2	5.2
50	Cc1ccc(NC(=O)c2[nH]c3c(c2C)C(=O)CC(c2ccc(C(C)(C)C)cc2)C3)cc1C (centres undefined)	·	-0.4
51	O=C(CN1CCc2ccccc21)Nc1scc2c1c(=O)oc1ccccc12	-0.8	4.4
52	C=CCn1c(=N)n(CC(=O)c2ccc(OC)cc2)c2ccccc21	1.3	3.6
53	O=c1[nH]c(CN2CCN(CCO)CC2)nc2ccccc12	0.3	-3.3
54	O=C(CCn1c(=O)c2ccccc2n(CC(=O)Nc2ccccc2)c1=O)NCCc1ccccc1	·	7.1
55	COC(=O)C1SCCN1C(=O)c1cc(-c2ccc(Cl)cc2)oc1C (centres undefined)	0.0	-1.9
56	CN(Cc1cccs1)C(=S)SCCO	0.8	-5.2
57	CN(C)S(=O)(=O)c1ccc(C(=O)Nc2c3c(nn2C(C)(C)C)CS(=O)C3)cc1 (centres undefined)	·	-1.0
58	C[C@@H]1CN([C@@H](C)CO)C(=O)c2cccc(NS(=O)(=O)c3ccc(F)cc3)c2O[C@@H]1CN(C)S(=O)(=O)c1cn(C)cn1	·	-8.8
59	O=C(NC1CCCCC1)C1CC(c2ccccc2F)=NO1 (centres undefined)	·	-3.0
60	COc1ccccc1Cn1c(=S)[nH]c2cc(C(=O)NCCN3CCOCC3)ccc2c1=O	-0.8	4.0
61	C[C@H]1CN([C@@H](C)CO)C(=O)c2cccc(NC(=O)Nc3ccc(C(F)(F)F)cc3)c2O[C@@H]1CN(C)S(=O)(=O)c1cccs1	·	-1.3
62	C=CCn1cnc2c1c(=O)[nH]c(=O)n2C	0.7	4.0
63	C[C@@H]1CN([C@H](C)CO)C(=O)c2cc(NC(=O)Nc3ccc(C(F)(F)F)cc3)ccc2O[C@@H]1CN(C)S(=O)(=O)c1ccc(Cl)cc1	0.0	3.5
64	Cc1ccccc1OCCn1c(=S)[nH]c2ccccc21	0.9	-4.9
65	COc1ccc(NC(=O)Nc2cccc3c2O[C@@H](CN(C)C(=O)Nc2ccc4c(c2)OCO4)[C@H](C)CN([C@H](C)CO)C3=O)cc1	·	-3.8
66	c1ccc(Nc2nc(Nc3ccccc3)nc(N3CCc4ccccc4C3)n2)cc1	·	-0.4
67	COc1ccc(NC(=O)Nc2ccc3c(c2)C(=O)N([C@@H](C)CO)C[C@H](C)[C@H](CN(C)S(=O)(=O)c2ccc(OC)cc2)O3)cc1	0.2	13.5
68	C[C@H]1CN([C@@H](C)CO)C(=O)c2cc(NS(C)(=O)=O)ccc2O[C@H]1CN(C)S(=O)(=O)c1ccc(F)cc1	-0.2	-3.8
69	C[C@@H]1CN([C@@H](C)CO)C(=O)c2cc(NC(=O)Nc3ccc(C(F)(F)F)cc3)ccc2O[C@@H]1CN(C)S(=O)(=O)c1ccc(F)cc1	0.2	-2.6
70	Cc1ccc(S(=O)(=O)N(C)C[C@@H]2Oc3c(NC(=O)Nc4ccc(F)cc4)cccc3C(=O)N([C@H](C)CO)C[C@@H]2C)cc1	·	-1.6
71	c1ccc(C2OCC3OC(c4ccccc4)OC3CO2)cc1 (centres undefined)	0.1	6.8
72	NS(=O)(=O)c1ccc(CCNC(=O)CC(c2ccccc2)c2ccccc2)cc1	1.0	3.1

(further entries)
no.	smiles	A1 inhib	BJeLR viab HTS
73	C[C@@H]1CN([C@H](C)CO)C(=O)c2cccc(NC(=O)Nc3cccc4ccccc34)c2O[C@H]1CN(C)C(=O)Nc1ccccc1	·	-10.5
74	C[C@H](CO)N1C[C@H](C)[C@@H](CN(C)S(=O)(=O)c2cn(C)cn2)Oc2ccc(NC(=O)Cc3cn(C)c4ccccc34)cc2C1=O	-0.9	0.5
75	COc1ccc(S(=O)(=O)N(C)C[C@@H]2Oc3c(NC(=O)c4ccc(-c5nccs5)cc4)cccc3C(=O)N([C@H](C)CO)C[C@@H]2C)cc1	·	-2.8
76	N=c1c2cnn(-c3ccccc3)c2ncn1/N=C/c1ccc(Cl)cc1	5.7	2.0
77	COc1ccc(S(=O)(=O)N(C)C[C@H]2Oc3c(NC(=O)NC4CCCCC4)cccc3C(=O)N([C@@H](C)CO)C[C@@H]2C)cc1	·	-3.5
78	CC(=O)O[C@]1(C(C)=O)CCC2C3C[C@H](C)C4=CC(=O)CC[C@]4(C)C3CC[C@@]21C (some centres undefined)	0.5	-4.7
79	CC1CC(=O)N(Cc2ccc(F)cc2)c2ccccc2S1(=O)=O (centres undefined)	0.5	5.5
80	COC(=O)c1sccc1-c1ccc(-c2ccn(S(=O)(=O)c3ccc(Cl)cc3)n2)o1	-0.5	-3.1
81	CC(C)NC(=O)N(C)C[C@@H]1Oc2c(NC(=O)C3CC3)cccc2C(=O)N([C@@H](C)CO)C[C@H]1C	·	-0.9
82	CC(C)NC(=O)N(C)C[C@@H]1Oc2ccc(NS(=O)(=O)c3cccs3)cc2C(=O)N([C@@H](C)CO)C[C@H]1C	0.0	-0.7
83	C[C@H](CO)N1C[C@H](C)[C@H](CN(C)Cc2ccc(C(=O)O)cc2)Oc2c(NS(=O)(=O)c3ccc(Cl)cc3)cccc2C1=O	·	0.1
84	COc1ccc(CN(C)C[C@@H]2Oc3ccc(NS(=O)(=O)c4ccc(OC)cc4)cc3C(=O)N([C@H](C)CO)C[C@H]2C)cc1	2.3	2.6

Another view of some results above:
18. C[C@@H]1CN([C@H](C)CO)C(=O)c2cc(N(C)C)ccc2O[C@@H]1CN(C)S(=O)(=O)c1ccc(Cl)cc1
76. N=c1c2cnn(-c3ccccc3)c2ncn1/N=C/c1ccc(Cl)cc1
13. C[C@H]1CN([C@@H](C)CO)C(=O)c2cc(NC(=O)NC3CCCCC3)ccc2O[C@H]1CN(C)S(=O)(=O)c1cn(C)cn1
51. O=C(CN1CCc2ccccc21)Nc1scc2c1c(=O)oc1ccccc12

Screen / compound no.	18	76	13	51
A1 inhib	-0.1	5.7	0.2	-0.8
BJeLR viab HTS	2.6	2.0	-0.2	4.4
